D2 agonist = agonists of human D2 dopamine receptor (beta-arrestin) | 0.084% of 360,000 active | P14416 | activation, % (no concentration beside the values) | DiscoveRx PathHunter D2 beta-arrestin, luminescence, 90 min; 100% = 57 uM dopamine signal; in the data active = activation above about 40%; inconclusive = about 15% to 40%; inactive = below about 15%; further: compound concentration not given in the record; the text of the record calls up to 30% inactive
Target sequence (P14416 whole entry, looked up): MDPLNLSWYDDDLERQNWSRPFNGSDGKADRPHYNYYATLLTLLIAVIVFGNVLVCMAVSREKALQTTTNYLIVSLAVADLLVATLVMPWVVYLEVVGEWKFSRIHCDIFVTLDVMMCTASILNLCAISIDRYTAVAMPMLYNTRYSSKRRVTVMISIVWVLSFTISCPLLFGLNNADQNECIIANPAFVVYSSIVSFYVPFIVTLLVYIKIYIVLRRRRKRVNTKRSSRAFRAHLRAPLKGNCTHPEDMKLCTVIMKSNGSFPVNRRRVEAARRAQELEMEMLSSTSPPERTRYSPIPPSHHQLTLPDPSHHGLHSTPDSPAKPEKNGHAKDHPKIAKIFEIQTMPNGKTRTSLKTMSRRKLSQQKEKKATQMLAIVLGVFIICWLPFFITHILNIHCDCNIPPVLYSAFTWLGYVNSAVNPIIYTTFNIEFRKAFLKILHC
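DiscoveRx PathHunter D2 beta-arrestin cells (2,100/well) attached overnight, then compound-stimulated 90 min at 37 C in HBSS/10 mM HEPES/0.1% Tween-20 buffer; beta-galactosidase complementation read by luminescence after 1 h at ambient temperature. Dopamine 57 uM final (EC100) as control.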
ClpP mod = qHTS Assay for Activators of ClpP; Potency, µM (highest dose often 57.5 µM), for the others: at the top dose activity change, negative = active; purified B. subtilis ClpP, FRET peptide cleavage, 20 min; 1.9% of 340,000 active; active = well fitted falling curve with a large enough effect; inconclusive = small, poorly fitted or top-dose-only effect; inactive = no such curve, though single readings can be large or run the other way; further: potency means the concentration at half of the fitted maximal effect; the source files actives as falling curves though it sought activators and does not explain the sign; nearly all actives have a fitted effect of over 65% in size; many hits overshoot -100%
Target sequence (P80244 whole entry, looked up): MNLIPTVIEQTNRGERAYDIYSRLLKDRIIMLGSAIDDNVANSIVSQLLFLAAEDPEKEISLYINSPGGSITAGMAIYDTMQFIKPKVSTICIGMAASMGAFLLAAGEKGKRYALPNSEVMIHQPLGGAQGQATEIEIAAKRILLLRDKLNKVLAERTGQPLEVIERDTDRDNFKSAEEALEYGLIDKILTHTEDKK
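Buffer: 100 mM Tris/HCl pH8, 100 mM KCl, 0.05% low protease BSA, 2.5% glycerol, 0.01% Tween-20. ClpP 10 microg/mL final; 20 min RT; delta FRET normalized to ADEP and DMSO controls.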
Menin MLL FP FL = displaces fluorescein MLL peptide from human menin; Fluorescence polarization, fluorescein-MLL peptide displacement from menin; FP activity change, % at 61.4 µM; 290,000 tested, under 10 active; inconclusive = falling polarisation curve, or a change in total fluorescence; inactive = total fluorescence flat and polarisation flat or rising; no compound was filed as active; the % refers to the polarisation; negative = inhibition;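 further: % of control where 0% means no effect; inhibitors lower the polarisation; unlabelled MLL peptide was the positive control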
PINK1 expr mod = PINK1 expression modulation. PINK1 immunofluorescence, high-content cytometry, 24 h. Potency, µM (doses to about 76.6 µM), for the others: top-dose activation (PINK1 increase), most hits filed as activators. 0.2% of 410,000 active; active = well fitted activation curve with a large enough effect; inconclusive = small, poorly fitted or top-dose-only effect; inactive = flat fitted curve, though single readings scatter; cell line not stated here;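 further: potency means the concentration at half of the fitted maximal effect; % of control where 0% means no effect; nearly all actives have a fitted effect of over 65% in size; a mitochondrial uncoupler was the plate control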
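PINK1 protein level read as immunofluorescence by microplate cytometer in a fixed, stained stable cell line after 24 h exposure to five compound concentrations, with CCCP as control.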
Sfp inh = inhibitors of Bacillus subtilis Sfp phosphopantetheinyl transferase | Biochemical Sfp PPTase activity, qHTS | 3.5% of 310,000 active | Potency, µM, for inactives: max response, negative = inhibition, hits mostly inhibitors | Q9F4F7 | AID 1490; active means well fitted inhibition curve with a large enough effect; inconclusive means small, poorly fitted or top-dose-only effect, or another doubt; inactive means no such curve, though single readings can be large or run the other way;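 further: the enzyme is Sfp with the accession as filed and its product quenches rhodamine fluorescence; potency means the concentration at half of the fitted maximal effect; 0% = enzyme reaction without inhibitor and -100% = no enzyme wells; top concentration of the series not given in the record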
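Fluorescence-quenching assay with 15 nM Sfp, 5 uM rhodamine-CoA and 12.5 uM BHQ-2-labelled ybbR peptide in pH 7.6 Hepes/MgCl2 buffer. Enzyme was pre-incubated with compound for 15 min at room temperature. Rate was taken from the 30-min fluorescence change (525/598 nm).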
gsp antag = gsp mutant antagonism; gsp-mutant cells, cAMP HTRF, 30 min; control for the full effect not named in the record; Potency, µM (series often up to 76.9 µM), inactives show top-dose activity change, negative = inhibition, hits mostly inhibitors; 0.4% of 340,000 active; AID 624288; active = falling curve of any shape with a large fitted effect; inconclusive = falling curve, mostly with a smaller effect; inactive = flat or rising curve; cell line not stated here;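 further: intracellular cAMP measured with PDE inhibitor Ro 20-1724 present during compound exposure; potency means the concentration at half of the fitted maximal effect; on the % scale 0 is the no-effect control and ±100 the full control effect; nearly all actives have a fitted effect of over 65% in size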
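G418-selected cells were plated in DMEM/10% FBS for 16-24 h at 37C, then treated with compounds plus the PDE inhibitor […] (300 uM solution added) for 30 min at 37C. Intracellular cAMP was measured by HTRF after 30 min lysis at room temperature.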
gsp ag = activates gsp, the McCune-Albright syndrome mutation; gsp mutant cells, cAMP HTRF, 30 min; control for the full effect not named in the record; Potency, µM (series often up to 76.9 µM), for the others: at the top dose activation (cAMP increase), actives largely listed as activators; 0.13% of 340,000 active; AID 624287; active = well fitted activation curve with a large enough effect; inconclusive = small, poorly fitted or top-dose-only effect, or another doubt; inactive = no such curve, though single readings can be large or run the other way; cell line not stated here;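 further: phosphodiesterase inhibitor Ro 20-1724 added with compounds to block cAMP breakdown; potency means the concentration at half of the fitted maximal effect; nearly all actives have a fitted effect of over 60% in size; about a fifth of the inactives were tested at one dose only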
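Cells stably selected in G418 were plated at 2000/well, grown 16-24 hr, then given compounds in DMSO with the PDE inhibitor […] (300 uM solution added) for 30 min at 37C; cAMP was read by HTRF.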
* = called active by the depositor; ? = inconclusive; nt = not tested or not shown; & = joins results of further samples; [ ] = dose if it differs, or a comment.

SMILES	D2 agonist	ClpP mod	Menin MLL FP FL	PINK1 expr mod	Sfp inh	gsp antag	gsp ag
COc1ccc(N=Cc2c(O)n(-c3ccc(OC)cc3)c(=O)c3ccccc23)cc1	2.2	nt	-18	?	-26%	-4%	14%
CC(CC(=O)Nc1ccc(Br)cc1F)S(=O)(=O)c1ccc2c(c1)NC(=O)CO2 (stereo unspecified)	-5.9	-0.9%&-1.3%	nt	-0.6%&1.4%	5%	-5%	7%
Cc1cccc2c(C(=O)O)cc(-c3cccnc3)nc12	-1.3	nt	-2.5	1.3%	21%	-1%	3%[15.4 µM]
CCOC(=O)N1CCC(N2CCCC(C(=O)c3cccc(OC(C)C)c3)C2)CC1 (stereo unspecified)	-0.8	nt	1.2	0.4%	-4%	-1%	-3%[15.4 µM]
O=C1C2C(C(=O)N1c1ccc3c(c1)OCO3)C1C=CC2C12CC2 (stereo unspecified)	1.5	-0.8%	1.8	1.5%[38.3 µM]	-13%	0%	?
O=C(O)Cn1c(=O)c2c3c(sc2n(Cc2ccc(F)cc2)c1=O)CCCC3	-3.7	1.4%	1.9	-1.5%	7%	?	6%[15.4 µM]
CC1=NN(C(=O)COc2ccccc2C)C(O)(c2ccc(Cl)cc2)C1 (stereo unspecified)	-0.4	1.2%	-1.8	4.5%	-7%	?	-20%
CS(=O)(=O)N(CC(=O)N1CCc2ccccc2C1)c1ccc2c(c1)OCO2	-1.3	-3.1%	3.5	0.1%	-3%	2%	9%
CC(C)CCNS(=O)(=O)c1cc2c3c(c1)CCN3C(=O)CC2	2.1	-1.0%	-2.5	-0.4%	8%	1%	-17%
CN(Cc1ccccc1)S(=O)(=O)c1ccc(Cl)c(C(=O)N2CCC(C(N)=O)CC2)c1	-0.9	nt	nt	1.9%	nt	3%	-38%
CNc1nc(N)c([N+](=O)[O-])c(N2CCCCCC2)n1	6.0	-4.1%	4.5	-0.2%	8%	-14%	-40%[inhibitor]
Oc1ccc(/C=N/Nc2ccc3ccccc3c2)c(O)c1	7.0	0.1%	0.4	3.0%	50µM*	1%	-15%[15.4 µM]
O=C(CN1CCCC1c1cccs1)N1CCN(S(=O)(=O)c2ccccc2)CC1 (stereo unspecified)	-3.3	0.3%	nt	-2.2%	nt	8%	-19%
O=C(CNC(=O)c1cccnc1)N/N=C/c1cc(Br)c(O)c(Br)c1	0.3	nt	-0.2	-1.6%	10%	5%	-31%[inhibitor][15.4 µM]
CN(C)S(=O)(=O)c1cccc(-c2cn3cccnc3n2)c1	2.5	nt	-2.0	-0.7%	-13%	7%	25%[15.4 µM]
CC(=O)Nc1nc(-c2ccc(Br)s2)cs1	-2.9	-0.6%	5.9	2.0%	-6%	1%	?
O=C(NC1CCCN(CCc2ccccc2)C1)C1CCCC1 (stereo unspecified)	7.0	nt	-7.0	-0.5%	-2%	4%	-20%
Cc1oc(-c2ccc(-c3ccccc3)cc2)nc1CN(CCO)C(C)C	3.2	nt	-4.4	1.2%	-3%	-5%	-28%
CCc1ccc(CN(C)C(=O)c2cc(COc3cccc4cnccc34)on2)cc1	5.5	4.3%	-2.2	7.1%	-20%	35µM*	-27%
O=C(Nc1ccc(NC(=O)c2ccccc2Br)cc1)c1ccccc1	3.3	-6.5%	-0.6	6.9%	9%	-3%	5%
CSc1ccccc1NC(=O)CN(C)C(=O)CNc1ccc(C(F)(F)F)cc1[N+](=O)[O-]	-4.6	1.2%	nt	5.6%	nt	2%	-24%
CCOC(=O)N1CCC(NC(=O)C2CCCN(C(=O)N3CCOc4ccccc43)C2)CC1 (stereo unspecified)	0.7	2.2%	-1.1	3.0%	14%	1%	19%
CC(C)Oc1ccc(CN2CCC2(C)C(=O)Nc2cccc3cccnc23)cc1 (stereo unspecified)	-4.0	?	nt	4.3%	nt	nt	nt
CCCS(=O)(=O)N1CCC(C(=O)NCCN(C)Cc2ccccc2)CC1	-3.3	-3.4%	2.9	-2.2%	10%	11%	-10%
CCOc1ccc2c(c1)sc(=NC(=O)C1CC1)n2C	-0.7	-21%	-0.2	0.4%[38.3 µM]	5%	-7%	-49%
COc1ccc(OC)c(/C=C2\SC(=S)N(NS(=O)(=O)c3ccc(C)cc3)C2=O)c1	-3.9	nt	10.0	-1.6%	11%	?	1%
Cc1cc(NC(=O)CSc2nnnn2C2CCCC2)no1	-2.2	-7.4%	3.9	22%[38.3 µM]	4%	11%	6%
CS(=O)(=O)N(CC(=O)Nc1ccc(Cl)c(Cl)c1)C1CCCCC1	-0.8	3.1%	-2.0	?	10%	-26%	-18%
CCC(NS(=O)(=O)c1c(C)[nH]c(=O)[nH]c1=O)C12CC3CC(CC(C3)C1)C2 (stereo unspecified)	0.5	-1.6%	5.3	-0.5%	2%	?	-16%
O=C(NCc1ccc2c(c1)OCO2)c1nc(S(=O)(=O)Cc2ccccc2F)ncc1Cl	-7.7	3.1%	5.0	-1.5%	25µM*	10%	21%
CCN(C[C@H]1N[C@@](C)(C(=O)OC)[C@H]2C(=O)N(C)C(=O)[C@@H]12)C(=O)Nc1ccccc1	-1.8	-0.7%	nt	0.2%	nt	6%	nt
O=C(CCl)NC1(C(F)(F)F)C(=O)Nc2c1c(=O)[nH]c(=O)n2-c1ccccc1 (stereo unspecified)	-0.9	nt	-0.4	-0.6%	6%	6%	?
CC1CCCCC1NC(=O)CN1C(=O)NC(C)(c2cccc(Br)c2)C1=O (stereo unspecified)	-3.9	-3.1%	nt	-0.1%	nt	4%	20%
Cn1nnc2c(sc3nc(N4CCOCC4)c4c(c32)CCCC4)c1=O	0.6	1.3%	0.6	3.4%	6%	4%	-20%
COc1ccc(NS(=O)(=O)c2cccc(NC(=O)CNC(C)=O)c2)cc1	-0.8	nt	-1.2	-0.4%	10%	2%	-1%[15.4 µM]
CCC(C)N(C(=O)CSc1nnc(C)n1C)C1CCS(=O)(=O)C1 (stereo unspecified)	0.3	nt	nt	0.6%	nt	14%	-8%[15.4 µM]
COc1ccc(OCc2nnc(SCC(=O)N3CCCCC3)o2)cc1	-1.9	nt	2.4	1.1%	12%	2%	?
CCC(C)[C@H](NC(=O)C1CC(=O)N(c2ccc3c(c2)OCCO3)C1)C(=O)NC1CCCC1 (stereo partly specified)	-0.3	0.8%	3.5	-0.8%	1%	-11%	-51%[inhibitor]
O=C(Cc1ccc(Cl)cc1)NC1CCS(=O)(=O)C1 (stereo unspecified)	1.6	0.6%	0.3	1.2%	12%	3%	2%
COc1ccc(CNC(=O)c2cccc3c2C(=O)N(CC2CCCO2)C3)cc1 (stereo unspecified)	-0.7	2.0%	-5.4	0.4%	12%	1%	-4%

Individual results from the results shown:
Reading for CCOc1ccc2c(c1)sc(=NC(=O)C1CC1)n2C in Menin MLL FP FL: -0.2
Reading for COc1ccc(OC)c(/C=C2\SC(=S)N(NS(=O)(=O)c3ccc(C)cc3)C2=O)c1 in D2 agonist: -3.9

Remaining list, next part:
SMILES	D2 agonist	ClpP mod	Menin MLL FP FL	PINK1 expr mod	Sfp inh	gsp antag	gsp ag
CCOC(=O)/C(C#N)=C/c1cn(CCOc2ccc(OC)cc2)c2ccccc12	-4.1	-3.0%	?	0.5%	-5%	14%	?
Cc1cc(C)cc(-n2ncc3c2CCCC3NC(=O)CCCn2cncn2)c1 (stereo unspecified)	0.1	5.2%	nt	0.2%	nt	0%	-103%[inhibitor]
COC(=O)c1ccsc1NC(=O)c1ccc2c(c1)OCCO2	-6.0	4.8%	4.5	5.1%	-21%	-4%	7%
COC(=O)c1[nH]c2ccc(C)cc2c1NS(=O)(=O)c1ccc(F)c(C)c1	-2.5	-4.4%	1.6	-0.2%	7%	-20%	0%[15.4 µM]
COc1ccc(CC(=O)n2[nH]c(=O)c3ccccc3c2=O)cc1OC	-1.6	nt	6.1	-1.1%	-1%	-6%	-4%[15.4 µM]
O=c1cc(CN2CCOCC2)c2c(ccc3ccccc32)o1	-3.9	?	0.2	-4.5%[38.3 µM]	16%	9%	27%
CC(C)NC(=O)N1CC[C@@]2(CCCN(S(=O)(=O)c3ccccc3)C2)C1	nt	nt	0.1	0.0%	2%	nt	nt
COc1ccc(N2C3=C(CC4=C2CCCC4=O)C(=O)CCC3)cc1	7.6	-24%	2.2	-0.2%	-2%	-17%	-1%
COc1cccc(CCC(=O)N2CCC(n3nccc3NC(=O)CC(C)C)CC2)c1	1.9	1.0%	-3.3	0.1%	24%	-12%	2%
NC(=O)C1(Nc2ccc([N+](=O)[O-])cc2)CCCC1	-1.3	nt	nt	-0.7%	nt	8%	36%
N#Cc1c(-c2ccccc2)ccn(Cc2ccc(Cl)cc2)c1=O	-1.5	-22%	0.0	6.5%	-5%	0%[15.4 µM]	-17%
CN(C(=O)c1ccc(F)cc1)c1ccc(OCC(=O)Nc2ccccc2C(=O)O)cc1	11	0.4%	nt	2.0%	nt	?	-5%[15.4 µM]
C=CCn1c(SCC(=O)N(CC)c2c(N)n(Cc3ccccc3)c(=O)[nH]c2=O)nnc1-c1ccccc1OC	-1.3	-2.9%	nt	2.7%	nt	7%	5%
C=CCn1c(SCC(=O)c2c(N)n(CCC)c(=O)n(C)c2=O)nnc1-c1ccncc1	1.4	nt	2.7	?	19%	7%	?
COc1cccc(-c2nc(CS(=O)(=O)CC(=O)Nc3cc(OC)ccc3OC)c(C)o2)c1	-4.2	-2.2%	4.9	1.9%	7%	-5%	4%
Cc1ccc2c(c1)NC(C(C)(C)C)CO2 (stereo unspecified)	-2.3	-2.8%	-4.4	11%	16%	4%	-3%
CCc1nnc(NS(=O)(=O)c2ccc(NC(=O)c3ccc(S(=O)(=O)N(CC)CC)cc3)cc2)s1	-3.2	nt	0.9	1.8%	17%	-2%	?
CCn1nc(C)c(NC(=O)CCCSc2nc(-c3ccco3)cc(C(F)(F)F)n2)c1C	4.6	-2.8%	2.0	1.0%	3%	-9%	-37%[inhibitor]
CC1CN(S(=O)(=O)c2cc(C(=O)N3CCCCC3C)ccc2Cl)CC(C)O1 (stereo unspecified)	-2.8	-0.2%	nt	3.0%	nt	-21%	7%
CCN(CC(=O)NCc1cccs1)c1ccc(S(=O)(=O)N2CCCC2)cn1	-3.5	-8.5%	8.4	0.5%	14%	-1%	13%
